Screens (PubChem)
Vaccinia mCherry: vaccinia inhibition (mCherry reporter). Vaccinia virus mCherry reporter infection, fluorescence; about a quarter of the inactives have no number. Potency, µM (doses to about 36.5 µM), for inactives: at the top dose activity change, negative = inhibition, most hits filed as inhibitors. hit rate 0.63% among 310,000. AID 720579; active = well fitted inhibition curve with a large enough effect; inconclusive = small, poorly fitted or top-dose-only effect; inactive = no such curve, though single readings can be large or run the other way; tested in A549 cells; further: nearly all actives have a fitted effect of over 35% in size; inactives centre near -10
Vaccinia Venus: vaccinia inhibition (Venus reporter); Vaccinia virus Venus reporter expression, fluorescence; Potency, µM (top dose mostly 36.5 µM), for the others: at the highest dose activity change, negative = inhibition, actives largely listed as inhibitors; hit rate 0.46% among 330,000; AID 720580; active means well fitted inhibition curve with a large enough effect; inconclusive means small, poorly fitted or top-dose-only effect; inactive means no such curve, though single readings can be large or run the other way; tested in A549 cells; further: nearly all actives have a fitted effect of over 30% in size; inactives centre near -10
Active calls of the source: *; i = inactive; ? = inconclusive; . = not tested or not shown. On the % scale 0 is the no-effect control and ±100 the full control effect; potency means the concentration at half of the fitted maximal effect.

item	molecule	Vaccinia mCherry	Vaccinia Venus
1	CCS(=O)(=O)N1CCc2cc(C(=O)NCCc3ccccc3)ccc21	0%	-8%
2	C#CCOCCOCCOCCNc1nc(N2CCN(C(=O)[C@H]([C@@H](C)CC)n3cc([C@@H](N)Cc4ccc(O)cc4)nn3)CC2)nc(N2CCN(C(=O)[C@H](Cc3ccc(O)cc3)n3cc([C@@H](N)C(C)CC)nn3)CC2)n1 (stereo partly drawn)	i	-11%
3	COc1ccc(NC(=O)CN2CCN(Cc3ccc(F)cc3)S2(=O)=O)cc1Cl	-18%	-13%
4	CCOc1ccc2nc(N3CCCC(C(=O)Nc4ccc(CC)cc4)C3)sc2c1 (stereo not drawn)	-17%	-25%
5	O=C(Nc1nc(-c2ccccn2)cs1)c1ncc(Cl)c(Cl)c1Cl	.	-9%
6	Cc1ccc(-c2c(C(=O)Nc3ccccc3C)c(C)[nH]c(=S)c2C#N)o1	3%	10%
7	CC(=O)c1cccc(S(=O)(=O)N2CCCC(c3nc4c(nnn4Cc4ccccc4Cl)c(=O)[nH]3)C2)c1 (stereo not drawn)	-13%	-16%
8	CC(=O)c1cccc(-c2ccnc3c2CC(C(=O)NC(C)C)O3)c1 (stereo not drawn)	i	-9%
9	Cc1cc(-c2ccc(S(=O)(=O)Nc3ccc(Cl)cc3C)cc2)on1	-24%	-26%
10	CC1(C)CC(=O)C2=C(C1)N(c1cccc(Cl)c1)C(=O)NC2(C(F)(F)F)C(F)(F)F	-20%	-14%
11	Cc1ncoc1C(=O)NCC1=C(c2ccc(S(C)(=O)=O)cc2)C[C@@H]2CC[C@H]1N2CCOc1ccccc1	-13%	-10%
12	COc1ccc(/C=C\c2nc(O)c([N+](=O)[O-])c(=O)[nH]2)cc1O	i	-9%
13	Cc1nn(C)cc1S(=O)(=O)NCc1ccc2c(c1)OCO2	-18%	-5%
14	O=C(CSc1ccccc1C(=O)O)NCc1ccccc1	i	-5%
15	Cc1cccc(C(=O)OCC(=O)N(CC(C)C)c2c(N)n(Cc3ccccc3)c(=O)[nH]c2=O)c1O	-1%	2%
16	Cc1ccc(S(=O)(=O)NCC(=O)OCCOc2ccc(Br)cc2)cc1	-13%	-11%
17	O=C(O)c1cccc(-c2csc(C(O)c3ccccc3)n2)c1 (stereo not drawn)	-6%	13%
18	CCCc1ncc(C(O)c2cccc3ccccc23)n1C (stereo not drawn)	-4%	-1%
19	O=C(CSc1nnc(CNC(=O)c2ccccc2)o1)Nc1ccc2c(c1)OCO2	-11%	-3%
20	CCN1C(=O)[C@@H]2[C@@H](c3ccc(-c4ccc(F)cc4)cc3)N3CCC[C@@]3(C(=O)OC)[C@@H]2C1=O	-15%	-15%
21	CC(NC(=O)C1CCN(S(=O)(=O)c2cnc[nH]2)CC1)c1ccccc1 (stereo not drawn)	-3%	2%
22	CCOc1cc2[nH]c(=O)n(CCCC(=O)N3CCN(c4cccc(Cl)c4)CC3)c(=O)c2cc1OCC	?	?
23	COc1ccc(N2C(=O)CCC(C(=O)NCCN3CCOCC3)C2c2ccc(OC)c(OC)c2)cc1 (stereo not drawn)	-14%	-16%
24	COc1ccc(-c2nc3ccccc3s2)cc1NC(=O)c1cccc(F)c1	-17%	-21%
25	C=CCOc1c2ccc(C(=O)N(CC)c3ccc(OC)cc3)cc2nn1C	-1%	-2%
26	CCN(CC)S(=O)(=O)c1cccc(-c2nnc(SCC(N)=O)n2N)c1	-8%	-6%
27	O=C(O)CC1(Cc2nc(-c3cccs3)no2)CCCC1	i	-11%
28	CCSc1nc(-c2ccc(OC)cc2)cc(-c2ccc(OC)cc2)c1C#N	-23%	-3%
29	O=C(NCCCN1CCCCCC1)C1CC(=O)N(C2CCCC2)C1 (stereo not drawn)	-9%	-12%
30	COc1ccc(Nc2cc(C(=O)NCCCN3CCN(C)CC3)c3ccccc3n2)c(OC)c1	9%	5%
31	Nc1nonc1C(=O)NCCNCc1ccc(Cl)c(Cl)c1	6%	-6%
32	CCN(CC(=O)Nc1ccccc1Br)C1CCCCC1	i	-9%
33	COC(=O)[C@@]1(C(C)C)N=C(c2cc(OC)c(OC)c(OC)c2)[C@]2(O1)C(=O)N(C)c1ccc(Cl)cc12	8%	-9%
34	O=C(Cn1cnc2c(nnn2Cc2ccccc2)c1=O)c1ccc(Cl)cc1	i	-17%
35	COc1ccc(-c2ccc(CCC(=O)O)n2-c2cc(Cl)ccc2O)cc1	-21%	-8%
36	CN(C)c1ccc(C(C(=O)NCc2ccccc2)N(Cc2cccnc2)C(=O)c2snc(C(N)=O)c2N)cc1 (stereo not drawn)	-11%	-9%
37	CCCCn1c(N)c(N(CCOC)C(=O)CSCC(=O)Nc2cccc(C)c2)c(=O)[nH]c1=O	i	-5%
38	Cc1ccccc1S(=O)(=O)NC(=O)C1(C)CCN1C(=O)C1(c2ccccc2)CCCC1 (stereo not drawn)	i	8%
39	Cc1cc([N+](=O)[O-])nn1CCCC(=O)Nc1c(C)n(C)n(-c2ccccc2)c1=O	i	13%
40	Cc1cccc(Cc2c(C)nc3nc(SCc4ccccc4F)nn3c2C)c1	-19%	-5%

Some of the entries so far, in transposed form.
#22 CCOc1cc2[nH]c(=O)n(CCCC(=O)N3CCN(c4cccc(Cl)c4)CC3)c(=O)c2cc1OCC
#23 COc1ccc(N2C(=O)CCC(C(=O)NCCN3CCOCC3)C2c2ccc(OC)c(OC)c2)cc1 (stereo not drawn)
#24 COc1ccc(-c2nc3ccccc3s2)cc1NC(=O)c1cccc(F)c1

entry no. | 22 | 23 | 24
Vaccinia mCherry | ? | -14% | -17%
Vaccinia Venus | ? | -16% | -21%

Next results follow.
item	molecule	Vaccinia mCherry	Vaccinia Venus
41	O=C(NCCc1csc2nc(-c3ccc(F)cc3)nn12)c1cccc(C(F)(F)F)c1	-6%	-18%
42	CCOC(=O)N1CCN(C(=O)C2CCN(CC3CCCCC3)CC2)CC1	-11%	-3%
43	O=[N+]([O-])c1cccc(S(=O)(=O)N2CCN(S(=O)(=O)N3CCOCC3)CC2)c1	-10%	-3%
44	CCCCOc1cccc(C(=O)N(Cc2ccc(C)o2)c2ccccn2)c1	-25%	-17%
45	CC(=O)c1ccc(F)c(-c2cc(C)cc3c2OC(CNC(=O)C[C@@H]2C[C@@H](C)NC(=S)N2)C3)c1 (stereo partly drawn)	-19%	-6%
46	CSc1nsc(SC)c1C(=O)Nc1ccc(C)cc1	.	-14%
47	CC(=O)c1c(C)[nH]c(C(=O)Nc2ccc(F)cc2F)c1C	3%	-2%
48	CCCCCn1c(Sc2ncccn2)nc2c1c(=O)[nH]c(=O)n2C	.	-1%
49	Cc1nc(SCC#N)c2c(C)c(C)sc2n1	-16%	-19%
50	C/C=C/c1ccc(OCC(=O)Nc2cc(OC)c(OC)c(OC)c2)c(OC)c1	-21%	-18%
51	COC(=O)/C=C/C(=O)Nc1cccc(C(F)(F)F)c1	?	?
52	CCOC(=O)CNC(=S)n1ncnc1N	-7%	12%
53	CC(=O)Cc1nsc(NC(=O)c2ccc(-c3ccccc3Cl)o2)n1	-22%	-19%
54	CC(Cc1ccccc1)C(=O)NCc1ccccn1 (stereo not drawn)	-15%	-11%
55	Cc1cccc(NC(=O)CCC(=O)Nc2nnc(C(F)(F)F)s2)c1	-9%	-10%
56	CCN(CC)C(=O)C(=O)N/N=C/c1cccc(Br)c1	i	-7%
57	CC(C)C[C@H]1CN([C@@H](Cc2ccc(O)cc2)CN2CCC[C@H]2CN2C(=O)C(=O)NC[C@@H]2Cc2ccccc2)C(=O)C(=O)N1CC1CCCCCC1	-12%	-13%
58	COc1ccc(C(=O)Nc2cccc(C(=O)O)c2)cc1S(=O)(=O)N1CCCC1	i	2%
59	Cc1ccc(-c2cc(NC=O)c3ncc(-c4cccc(C(=O)N(C)C)c4)n3c2)cc1	-28%	?
60	O=C(NC(=S)Nc1ccc(S(=O)(=O)Nc2nccs2)cc1)c1ccccc1F	-1%	-6%
61	CCCCCCCCN1C(=O)[C@H](CC(=O)NCCCOC)C[C@@]2(C(=O)OC)CC(C)(C)CC=C12	-6%	-21%
62	CCOC(=O)N(c1ccccc1)P1(=S)OCC(C)O1 (stereo not drawn)	-11%	-5%
63	COCCNc1nc2c(c(=O)n(C)c(=O)n2C)n1CCCc1ccccc1	i	-21%
64	Cc1cccc(-n2c(C)cc(/C=N/NC(=O)c3cccc([N+](=O)[O-])c3C)c2C)c1	-29%	-18%
65	COc1ccc(-n2ccc(-c3nn(-c4cccc(C(F)(F)F)c4)ccc3=O)n2)cc1	.	?
66	CC(C#N)Sc1nc2ccccc2c(=O)n1-c1ccccc1 (stereo not drawn)	-24%	-24%
67	CCCCOc1ccc(C(=O)N/C(=C\c2cccc([N+](=O)[O-])c2)C(=O)OCc2ccco2)cc1	-5%	-15%
68	CC(C)/C=N/Nc1nc2c(c(=O)n(C)c(=O)n2C)n1C	-19%	-18%
69	CC(C)=C(NC(=O)c1ccccc1)C(=O)N1CCOCC1	i	-12%
70	O=C(c1cc(N2C(=O)C3C4CCC(C4)C3C2=O)ccc1Cl)N1CCN(c2ccccc2)CC1 (stereo not drawn)	i	-9%
71	COc1ccc(C(=O)N2c3ccccc3C(=O)OC2c2ccc3c(c2)OCO3)cc1 (stereo not drawn)	-23%	-16%
72	Cc1cc(OCC(=O)NCC2(N3CCOCC3)CCCCC2)ccc1Cl	-6%	-22%
73	CCC1CN(C(=O)NCc2ccc(C)cc2)c2cc(Cl)ccc2O1 (stereo not drawn)	2%	-7%
74	Cc1cc(=O)n(CC(=O)NCCC(C)C)c2c1c(C)nn2C	3%	-1%
75	CCN(C(=O)CN1C(=O)c2ccc([N+](=O)[O-])cc2C1=O)C1CCS(=O)(=O)C1 (stereo not drawn)	-14%	-4%
76	CC[C@@H](C)[C@@H](C(=O)N1CCN(C(=O)OC(C)(C)C)CC1)n1cc(CCCN=C(NC(=O)OC(C)(C)C)NC(=O)OC(C)(C)C)nn1	-1%	?
77	CCn1cc(C(=O)N2CCN(c3cccc(C(F)(F)F)c3)CC2)c2cc(OC)c(OC)cc2c1=O	-25%	-22%
78	Cn1c(=O)c2cc(S(=O)(=O)NCCC(=O)NCCC3=CCCCC3)ccc2n(C)c1=O	-9%	-9%
79	CCN(C(=S)Nc1ccc(OC(F)F)cc1)C1CCCCC1	-12%	-10%
80	O=C(O)c1cc(Cl)ccc1NC(=O)C1CCCO1 (stereo not drawn)	3%	19%

The last 2 entries of the part before lead into the next:
item	molecule	Vaccinia mCherry	Vaccinia Venus
79	CCN(C(=S)Nc1ccc(OC(F)F)cc1)C1CCCCC1	-12%	-10%
80	O=C(O)c1cc(Cl)ccc1NC(=O)C1CCCO1 (stereo not drawn)	3%	19%
81	CCOC(=O)c1c(Nc2cc(C)cc(C)c2)nnc(-c2ccccc2)c1-c1ccccc1	13%	-2%
82	O=C(Nc1nc2ccc(Cl)cc2s1)c1ccc(Br)o1	.	-18%
83	O=C(N1CCN(c2ccccc2)CC1)C1(S(=O)(=O)c2ccc(Cl)cc2)CC1	?	-2%
84	O=C(Nc1ccc(N2CCOCC2)cc1N1CCOCC1)c1ccco1	-25%	?
85	COc1ccccc1-n1cnc2cc(NC(=O)c3ccco3)ccc21	i	-18%
86	OCc1ccccc1-c1nc(NCc2ccccc2)nc2ccsc12	i	-27%
87	COc1cc(C2Nc3ccc4ncccc4c3C3=C2C(=O)CCC3)cc(OC)c1O (stereo not drawn)	.	?
88	CONC(=O)c1ccc(-c2cccc3nccn23)cc1	i	3%
89	COc1ccc(CCNC2=C(Cl)C(=O)N(CCc3ccc(OC)c(OC)c3)C2=O)cc1OC	-10%	-10%
90	CCN(CC)CCNC(=O)c1c(C)oc2ncnc(N3CCOCC3)c12	i	-7%
91	COc1ccc(C(=O)n2cnc3ccccc32)cc1Br	-7%	-14%
92	CC(C)(C)NCC(=O)N/N=C/c1ccc(OCc2ccccc2)cc1	0%	-5%
93	Cc1ccc(-n2c(=O)c3cccnc3n2CC(=O)Nc2cccc(C)c2C)cc1	-18%	-16%
94	O=C(NCCCN1CCOCC1)c1cccc(S(=O)(=O)N2CCc3ccccc32)c1	-14%	-18%
95	O=C(NC1CCCCC1)N(Cc1nc2ccccc2c(=O)[nH]1)C1CCCCC1	-23%	-21%
96	CC(C)c1nc(CNC(=O)CC2C(=O)NCCN2Cc2cccc(F)c2F)cs1 (stereo not drawn)	-21%	-4%
97	CC(=O)N1CCc2c(sc3c2c(=O)n(-c2ccccc2C)c(=O)n3Cc2cccc(F)c2)C1	-28%	-16%
98	O=C(CCNS(=O)(=O)c1cccc2nsnc12)Nc1ccc(F)cc1	-5%	-10%
99	COc1ccc2c(Sc3ccc(Cl)cc3)c(C(=O)N3CCC(C)CC3)[nH]c2c1	-16%	-10%
100	O=C(NN=C1CCCC1)c1[nH]c2ccc(Cl)cc2c1-c1ccccc1	-27%	-25%
101	COc1ccc(CNS(=O)(=O)NCc2ccc(OC)c(OC)c2)cc1OC	-12%	-6%

Full records as entered above.
Record of CC(C)(C)NCC(=O)N/N=C/c1ccc(OCc2ccccc2)cc1 : Vaccinia mCherry = 0%; Vaccinia Venus = -5%
Record of O=C(NCCCN1CCOCC1)c1cccc(S(=O)(=O)N2CCc3ccccc32)c1 : Vaccinia mCherry = -14%; Vaccinia Venus = -18%
Record of O=C(CCNS(=O)(=O)c1cccc2nsnc12)Nc1ccc(F)cc1 : Vaccinia mCherry = -5%; Vaccinia Venus = -10%
